AF4-AF9 inh: inhibitors of AF4 peptide binding to AF9, primary screen, biochemical, AlphaScreen, biotin-AF4 peptide, FLAG-AF9, single point; AID 651704, 2012; hit rate 0.47% among 350,000; inhibition, % at 10 µM;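 active means every replicate reaching a set inhibition limit, whatever the replicate mean, cut at about 25% in these data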;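 further: 0% = plate neutral control median and 100% = total signal loss; the record names both 10 and 1 µM as test concentration; the first replicate is given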
Target sequence (P42568 whole entry, looked up): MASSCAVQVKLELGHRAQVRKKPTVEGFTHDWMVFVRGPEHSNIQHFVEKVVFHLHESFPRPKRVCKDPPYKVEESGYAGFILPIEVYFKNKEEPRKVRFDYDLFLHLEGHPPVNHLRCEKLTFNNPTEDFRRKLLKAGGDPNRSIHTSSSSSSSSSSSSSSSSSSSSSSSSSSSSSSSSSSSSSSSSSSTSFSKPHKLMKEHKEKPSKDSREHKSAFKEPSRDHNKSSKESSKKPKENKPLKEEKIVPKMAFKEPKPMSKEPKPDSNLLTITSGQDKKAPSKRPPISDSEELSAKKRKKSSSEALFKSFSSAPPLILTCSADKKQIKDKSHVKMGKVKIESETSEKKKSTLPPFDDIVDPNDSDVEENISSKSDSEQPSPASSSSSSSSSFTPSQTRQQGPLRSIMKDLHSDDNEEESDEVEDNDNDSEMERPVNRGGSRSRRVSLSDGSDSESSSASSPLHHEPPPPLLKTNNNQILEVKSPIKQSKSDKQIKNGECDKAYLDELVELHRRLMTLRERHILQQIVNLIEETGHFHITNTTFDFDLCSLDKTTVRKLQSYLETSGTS
Numbers without * were called inactive; & = joins results of further samples. An excerpt (hit frequency here may not be typical).

smiles,AF4-AF9 inh
C[C@@H]1CN([C@H](C)CO)C(=O)c2cc(NS(=O)(=O)c3ccc(Cl)cc3)ccc2O[C@@H](C)CCCCO[C@@H]1CN(C)S(=O)(=O)c1ccc(F)cc1,-1.2
COCCN1C(=O)CN(S(C)(=O)=O)CC1(C)C(=O)NC(C)C (centres undefined),-1.7
CN1CCN(C(=O)C[C@@H]2CC[C@H]3[C@@H](COC[C@H](O)CN3Cc3cccc(F)c3)O2)CC1,1.7
COc1ccc(S(=O)(=O)Nc2ccc3c(c2)C(=O)N([C@H](C)CO)C[C@@H](C)[C@@H](CN(C)C(=O)C2CCCCC2)OCCCC[C@H](C)O3)cc1,0.7
CCCNC(=O)C[C@@H]1CC[C@H]2[C@H](COc3ccc(NC(=O)CC)cc3C(=O)N2C)O1,-0.3
C[C@@H]1CN([C@H](C)CO)C(=O)c2cc(NC(=O)CCN3CCOCC3)ccc2O[C@H]1CN(C)S(=O)(=O)c1ccc(Cl)cc1,-0.1
CO[C@@H]1CN(C)C(=O)c2cc(NS(=O)(=O)c3cccc(F)c3)ccc2OC[C@@H](C)NC[C@H]1C,-2.9
CC(C)NC(=O)N(C)C[C@@H]1Oc2ccc(NS(C)(=O)=O)cc2C(=O)N([C@@H](C)CO)C[C@H]1C,0.2
C/C=C/c1ccc([C@H]2[C@H]3CN(Cc4ccccc4)CC(=O)N3[C@H]2CO)cc1,3.1
O=C(c1ccccn1)N1CC(=O)N2[C@H](CO)[C@H](c3ccc(C4=CCCC4)cc3)[C@@H]2C1,-3.4

Three structures already listed, arranged by formula weight, rising.
smiles,AF4-AF9 inh
COCCN1C(=O)CN(S(C)(=O)=O)CC1(C)C(=O)NC(C)C (centres undefined),-1.7
O=C(c1ccccn1)N1CC(=O)N2[C@H](CO)[C@H](c3ccc(C4=CCCC4)cc3)[C@@H]2C1,-3.4
C[C@@H]1CN([C@H](C)CO)C(=O)c2cc(NC(=O)CCN3CCOCC3)ccc2O[C@H]1CN(C)S(=O)(=O)c1ccc(Cl)cc1,-0.1

Carrying on:
smiles,AF4-AF9 inh
N#C[C@H]1[C@@H](c2ccc(-c3ccccc3)cc2)[C@H](CO)N1C(=O)Cc1ccccc1,1.0
CO[C@H]1CN(C)C(=O)c2cc(NC(=O)Nc3c(C)noc3C)ccc2OC[C@@H](C)N(CCC(F)(F)F)C[C@H]1C,-14
CO[C@H]1CN(C)C(=O)c2cc(NS(=O)(=O)c3ccccc3C)ccc2OC[C@H](C)NC[C@@H]1C,-4.1
CCCNC(=O)[C@H]1[C@H](CO)[C@H]2Cn3c(cccc3=O)[C@@H]1N2C(=O)C1CC1,-20
COc1ccc(-c2cn(CC[C@H]3CC[C@H](NC(=O)NC(C)C)[C@H](CO)O3)nn2)cc1,-2.7
N#C[C@@H]1[C@@H](c2ccccc2C2=CCCC2)[C@H](CO)N1C(=O)C1CC1,0.2
CC(C)CC#Cc1ccc([C@H]2[C@@H](CO)N3C(=O)CN(S(=O)(=O)c4ccccc4)C[C@@H]23)cc1,-0.5
CCCNC(=O)N1[C@@H](CO)[C@@H]2c3ccccc3N(C)C[C@@H]21,-1.9
O=C(Nc1ccc(F)cc1)N1CC(=O)N2[C@H](CO)[C@@H](c3ccc(-c4ccccc4)cc3)[C@@H]2C1,-1.9
O=C(Nc1cc(F)ccc1F)N1CC(=O)N2[C@H](C1)[C@H](c1ccc(-c3cccnc3)cc1)[C@@H]2CO,-3.1

The listing continues.
smiles,AF4-AF9 inh
O=C(C[C@@H]1C[C@@H]2c3cc(NC(=O)C4CCC4)ccc3O[C@@H]2[C@H](CO)O1)NCCc1ccccc1,1.5
COc1ccccc1CNC(=O)C[C@H]1CC[C@H]2[C@@H](COC[C@@H](O)CN2C(=O)Nc2ccccc2)O1,1.3
Cc1c(C(=O)NCc2ccccc2C(F)(F)F)sc(=O)n1Cc1ccc(Cl)c(Cl)c1,-4.0
C[C@H]1CN([C@@H](C)CO)C(=O)c2cc(NS(C)(=O)=O)ccc2O[C@H]1CN(C)Cc1ccncc1,-1.3
NC(=O)C1CCN(C(=O)c2ccc(NS(=O)(=O)/C=C/c3ccccc3)cc2)CC1,1.6
Cc1noc(C)c1NC(=O)N(C)C[C@@H]1Oc2ccc(NC(=O)Nc3ccc(C(F)(F)F)cc3)cc2CC(=O)N([C@@H](C)CO)C[C@H]1C,-17
CCCC(O)C#Cc1cnc2c(c1)C(=O)N([C@H](C)CO)C[C@H](C)[C@H](CN(C)S(=O)(=O)c1ccc(OC)cc1)O2 (some centres undefined),1.2
COCC(=O)Nc1ccc2c(c1)OC[C@H](C)N(CCc1ccccc1)C[C@@H](C)[C@@H](OC)CN(C)C2=O,4.4
CCCN(C)C[C@H]1OCc2cnnn2CCCC(=O)N([C@H](C)CO)C[C@H]1C,-6.2
CCN1[C@@H]2c3ccc(-c4cccc(F)c4)c(=O)n3C[C@@H]2[C@@H](CO)[C@@H]1C(=O)N[C@H](C)c1ccccc1,0.9

Going on with the list.
smiles,AF4-AF9 inh
COc1ccc(S(=O)(=O)Nc2ccc3c(c2)C(=O)N([C@@H](C)CO)C[C@H](C)[C@@H](CN(C)Cc2ccncc2)OCCCC[C@H](C)O3)cc1,2.4
CCC(=O)N[C@H]1CC[C@@H](CC(=O)NCc2ccccc2F)O[C@H]1CO,-1.3
Cc1noc(C)c1NC(=O)N[C@H]1C=C[C@@H](CC(=O)Nc2ccc(-c3ccccc3)cc2)O[C@H]1CO,-0.4
O=C(C[C@@H]1CC[C@H]2[C@@H](COC[C@H](O)CN2Cc2cc(F)cc(F)c2)O1)Nc1nccs1,8.1
COc1ccccc1S(=O)(=O)N[C@@H]1C=C[C@H](CC(=O)NCc2cc(F)cc(F)c2)O[C@@H]1CO,-4.1
C/C=C/c1ccc2c(c1)O[C@H](CN(C)C(=O)Cc1ccccn1)[C@H](C)CN([C@H](C)CO)S2(=O)=O,-2.2
CN(C)C(=O)c1cccc(-c2ccccc2[C@@H]2[C@H](C#N)N(C(=O)C3CCC3)[C@H]2CO)c1,-1.8
CCC(=O)Nc1ccc2c(c1)C(=O)N(C)C[C@H](OC)[C@@H](C)CN(Cc1ccccc1F)[C@H](C)CO2,9.2
C[C@@H]1CN([C@@H](C)CO)C(=O)c2cc(NC(=O)Cn3cnnn3)ccc2O[C@@H]1CN(C)S(=O)(=O)c1ccc(F)cc1,-1.5
O=C(C[C@H]1C=C[C@H](NS(=O)(=O)c2ccccc2)[C@@H](CO)O1)NCc1ccc(Cl)c(Cl)c1,-0.7

Going on with the list:
smiles,AF4-AF9 inh
CNC[C@@H]1Oc2c(NC(=O)Nc3c(C)noc3C)cccc2C(=O)N([C@@H](C)CO)C[C@@H]1C,-0.7
C[C@H](CO)N1C[C@H](C)[C@H](CN(C)C(=O)c2ccccc2)Oc2ncc(C3=CCCCC3)cc2C1=O,-3.1
COc1ccc(S(=O)(=O)Nc2cccc3c2O[C@H](CN(C)Cc2ccc4c(c2)OCO4)[C@@H](C)CN([C@@H](C)CO)C3=O)cc1,2.3
CS(=O)(=O)Nc1ccc2c(c1)[C@H]1C[C@@H](CC(=O)NCc3ccncc3)O[C@H](CO)[C@H]1O2,0.9
C[C@@H]1CN([C@@H](C)CO)S(=O)(=O)c2ccc(-c3ccc(F)cc3)cc2O[C@@H]1CN(C)C(=O)Nc1ccccc1F,-2.0
COCC(=O)Nc1ccc2c(c1)C(=O)N(C)[C@@H]1CC[C@H](CC(=O)NCc3ccccc3F)O[C@H]1CO2,-11
C[C@H](CO)N1C[C@H](C)[C@@H](CN(C)C(=O)C2CC2)Oc2ncc(-c3cccc(C#N)c3)cc2C1=O,-3.4
COc1ccc(NC(=O)N(C)C[C@H]2Oc3ccc(NC(=O)NC(C)C)cc3CC(=O)N([C@@H](C)CO)C[C@H]2C)cc1,-7.6
COc1ccc2c3c(n(C)c2c1)[C@@H](CO)N(C(C)=O)CC31CN(C(=O)C2CCOCC2)C1,-1.6
C[C@H]1CN([C@@H](C)CO)C(=O)c2cc(C#CC3(O)CCCC3)cnc2O[C@H]1CN(C)Cc1ccccn1,-2.5

Other structures:
smiles,AF4-AF9 inh
O=C(C1CCCCC1)N1CC(=O)N2[C@@H](CO)[C@@H](c3ccc(C#CCc4ccccc4)cc3)[C@@H]2C1,0.0
C[C@@H]1CCCCO[C@@H](CN(C)C(=O)CCCN(C)C)[C@@H](C)CN([C@H](C)CO)C(=O)c2cc(NS(=O)(=O)c3ccc(F)cc3)ccc2O1,-2.9
CC(C)(C)OC(=O)N1O[C@H]2C=C[C@@H]1C2,-1.9
CC(C)C[C@H]1CNC(=S)N1C[C@H]1CCCN1C[C@H](Cc1ccccc1)N1C[C@H](CC(C)C)N(CCc2ccccc2)C1=S,0.6
Cc1ccc(S(=O)(=O)N(C)C[C@H]2OCCCC[C@H](C)Oc3ccc(NC(=O)NC(C)C)cc3C(=O)N([C@@H](C)CO)C[C@H]2C)cc1,-1.1
OCc1ccccc1-c1ccc2nncn2c1,0.3
CO[C@@H]1CN(C)C(=O)c2cc(NC(=O)Cc3ccccc3)ccc2OC[C@@H](C)NC[C@@H]1C,-9.5
C[C@@H]1CN([C@H](C)CO)C(=O)CCCn2nncc2CO[C@@H]1CN(C)S(=O)(=O)c1ccccc1,-4.7&1.8
C[C@H](CO)N1C[C@H](C)[C@@H](CN(C)S(C)(=O)=O)Oc2ccc(NS(=O)(=O)c3ccc(Cl)cc3)cc2CC1=O,0.2
C[C@@H]1CCCCO[C@H](CN(C)C(=O)c2ccccc2)[C@H](C)CN([C@H](C)CO)C(=O)c2cc(NC(=O)C3CCCCC3)ccc2O1,5.0

Continued.
smiles,AF4-AF9 inh
C[C@H](CO)N1C[C@H](C)[C@@H](CN(C)Cc2ccncc2)Oc2c(NC(=O)C3CCOCC3)cccc2C1=O,-15
COc1ccccc1S(=O)(=O)N[C@@H]1C=C[C@@H](CC(=O)N2CCCCC2)O[C@@H]1CO,-11
C[C@@H]1CN([C@H](C)CO)C(=O)c2cc(NS(=O)(=O)c3cccs3)ccc2O[C@@H](C)CCCCO[C@@H]1CN(C)CC1CCCCC1,0.6
C[C@@H]1CN([C@H](C)CO)C(=O)c2cc(NC(=O)c3ccncc3)ccc2O[C@@H]1CN(C)S(C)(=O)=O,-0.3
C[C@H]1CN([C@@H](C)CO)C(=O)c2cc(-c3ccccc3F)cnc2O[C@H]1CN(C)C(=O)CN(C)C,-3.4
CN1C(=O)c2cc(NC(=O)c3cccc(F)c3)ccc2OC[C@@H]2O[C@H](CC(=O)N3CCc4ccccc4C3)CC[C@H]21,0.1
O=C(c1cn(-c2ccccc2)nc1-c1cccnc1)N1CCN(S(=O)(=O)c2ccc(Cl)cc2)CC1,-0.7
COc1ccc(C#Cc2cnc3c(c2)C(=O)N([C@H](C)CO)C[C@H](C)[C@@H](CN(C)C(=O)c2ccccc2F)O3)cc1,-1.7
CO[C@H]1CN(C)C(=O)c2cccc(C#N)c2OC[C@H]2O[C@H](CC[C@@H]2OC)CCN(C)C(=O)[C@H]1C,0.5
O=C(c1ccc(Cl)c(Cl)c1)N1CCC(=O)N([C@H](COCc2cccc(C(F)(F)F)c2)Cc2ccccc2)CC1,1.1

A different layout for part of the listing above:
AF4-AF9 inh	SMILES
4.4	COCC(=O)Nc1ccc2c(c1)OC[C@H](C)N(CCc1ccccc1)C[C@@H](C)[C@@H](OC)CN(C)C2=O
-1.3	C[C@H]1CN([C@@H](C)CO)C(=O)c2cc(NS(C)(=O)=O)ccc2O[C@H]1CN(C)Cc1ccncc1
-2.9	CO[C@@H]1CN(C)C(=O)c2cc(NS(=O)(=O)c3cccc(F)c3)ccc2OC[C@@H](C)NC[C@H]1C
1.2	CCCC(O)C#Cc1cnc2c(c1)C(=O)N([C@H](C)CO)C[C@H](C)[C@H](CN(C)S(=O)(=O)c1ccc(OC)cc1)O2 (some centres undefined)
-1.1	Cc1ccc(S(=O)(=O)N(C)C[C@H]2OCCCC[C@H](C)Oc3ccc(NC(=O)NC(C)C)cc3C(=O)N([C@@H](C)CO)C[C@H]2C)cc1
-0.7	O=C(C[C@H]1C=C[C@H](NS(=O)(=O)c2ccccc2)[C@@H](CO)O1)NCc1ccc(Cl)c(Cl)c1

Taken from above:
C[C@H]1CN([C@@H](C)CO)C(=O)c2cc(-c3ccccc3F)cnc2O[C@H]1CN(C)C(=O)CN(C)C in AF4-AF9 inh reads -3.4
COc1ccc(C#Cc2cnc3c(c2)C(=O)N([C@H](C)CO)C[C@H](C)[C@@H](CN(C)C(=O)c2ccccc2F)O3)cc1 in AF4-AF9 inh reads -1.7

Following part
smiles,AF4-AF9 inh
COc1ccc(CC(N)c2csc(NC(=O)c3ccccc3OC)n2)cc1 (centres undefined),-2.0
O=C(NC1CCC1)C1CCC(=O)N(Cc2ccc(Cl)cc2)C1 (centres undefined),-3.9
Cc1cccc(S(=O)(=O)N2C[C@@H]3[C@H](c4ccccc42)[C@@H](CO)N3CC2CCCC2)c1,4.4
C[C@H](CO)N1C[C@H](C)[C@H](CN(C)Cc2ccc(F)cc2)Oc2ncc(-c3cncnc3)cc2C1=O,-4.1
CC(C)C#Cc1ccc2c(c1)O[C@@H](CN(C)S(C)(=O)=O)[C@@H](C)CN([C@@H](C)CO)S2(=O)=O,-2.1
COC(=O)[C@]12CCCCC=C1N(CCC1=CCCCC1)C(=O)[C@H](CC(=O)NCCC(C)C)C2,1.6
C[C@@H]1CN([C@H](C)CO)C(=O)c2cc(C#CCC3CCCC3)cnc2O[C@@H]1CN(C)Cc1ccccn1,-23
Cc1ccc(S(=O)(=O)N(C)C[C@@H]2OCCCC[C@@H](C)Oc3ccc(NC(=O)Nc4ccc(F)cc4)cc3C(=O)N([C@H](C)CO)C[C@@H]2C)cc1,-2.5
C[C@H](CO)N1C[C@H](C)[C@@H](CN(C)C(=O)CCCN(C)C)OCCCC[C@H](C)Oc2ccc(NS(=O)(=O)c3ccc(F)cc3)cc2C1=O,0.2
CO[C@H]1CN(C)C(=O)c2cc(NS(=O)(=O)c3ccc(Oc4ccccc4)cc3)ccc2OC[C@H](C)NC[C@H]1C,-4.9
COc1ccc(S(=O)(=O)N(C)C[C@@H]2Oc3ccc(NC(=O)c4ccncc4)cc3CC(=O)N([C@@H](C)CO)C[C@@H]2C)cc1,-0.2
CC1(C(=O)NS(=O)(=O)c2cccc(F)c2)CCN1C(=O)c1ccccc1CCc1ccccc1 (centres undefined),-2.5
N#C[C@@H]1[C@H](c2ccccc2C2=CCCCC2)[C@H](CO)N1S(=O)(=O)c1cccc(F)c1,-3.5

Screening data deposited in PubChem by Broad Institute.
